Compound activity (PubChem BioAssay)
GALR2 ag: GALR2 receptor agonists, primary screen, cell-based. GALR2-expressing cells, agonist activation read-out. activation, %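 (tested at 5 µM)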. 140,000 tested, 0.48% active. AID 803, 2007;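 active means above mean plus 3 SD of all compounds, about 5% in these data, not always enough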;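 further: 0% = vehicle buffer wells and 100% = reference agonist at full effect; tested in CHO reporter cells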
Target sequence (O43603 whole entry, looked up): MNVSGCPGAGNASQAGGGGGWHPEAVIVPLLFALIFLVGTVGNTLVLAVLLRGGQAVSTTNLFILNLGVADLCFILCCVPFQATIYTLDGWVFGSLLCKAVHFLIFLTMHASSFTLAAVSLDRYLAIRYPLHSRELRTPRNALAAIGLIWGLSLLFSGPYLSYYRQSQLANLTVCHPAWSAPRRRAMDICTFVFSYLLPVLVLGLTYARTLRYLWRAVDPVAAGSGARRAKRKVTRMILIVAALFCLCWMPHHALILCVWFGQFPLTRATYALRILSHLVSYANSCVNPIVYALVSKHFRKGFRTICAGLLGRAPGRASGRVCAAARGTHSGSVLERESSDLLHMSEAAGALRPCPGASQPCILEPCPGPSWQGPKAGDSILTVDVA
PKD1 kinase inh: inhibitors of human PKD1 kinase, biochemical, fluorescence polarization; inhibition, %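 (about 10 µM by stock and volumes)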; Serine/threonine-protein kinase D1 (Homo sapiens), Q15139; PKD1 kinase fluorescence polarization assay; 200,000 tested, 0.056% active;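 active means inhibition of 50% or more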;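 further: controls were vehicle for no effect and a reference inhibitor for full effect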
RGS16-Gao HTS: modulators of RGS16 binding to Galphao, primary screen, biochemical, human proteins, multiplexed bead flow cytometry. Regulator of G-protein signaling 16 (Homo sapiens) + Guanine nucleotide-binding protein …. bead-based flow cytometry RGS16-Galphao binding, fluorescence; actives lie on both sides. binding response (% of control), % at 10 µM. 220,000 tested, 0.38% active. AID 1441, 2008;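 active means below 25% or above 175%, edge rows of some plates excepted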;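 further: Galphao activated by GDP with aluminum fluoride before binding; 100% = wells without compound and 0% = beads without RGS; some results beyond the cut were filed as inactive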
Target sequence (O15492 whole entry, looked up): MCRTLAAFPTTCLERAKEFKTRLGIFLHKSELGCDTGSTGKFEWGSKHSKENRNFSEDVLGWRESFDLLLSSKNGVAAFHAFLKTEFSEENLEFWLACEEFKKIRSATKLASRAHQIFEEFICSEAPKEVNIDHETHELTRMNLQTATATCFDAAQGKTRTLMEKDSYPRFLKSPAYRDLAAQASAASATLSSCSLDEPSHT
Target sequence (P09471 whole entry, looked up): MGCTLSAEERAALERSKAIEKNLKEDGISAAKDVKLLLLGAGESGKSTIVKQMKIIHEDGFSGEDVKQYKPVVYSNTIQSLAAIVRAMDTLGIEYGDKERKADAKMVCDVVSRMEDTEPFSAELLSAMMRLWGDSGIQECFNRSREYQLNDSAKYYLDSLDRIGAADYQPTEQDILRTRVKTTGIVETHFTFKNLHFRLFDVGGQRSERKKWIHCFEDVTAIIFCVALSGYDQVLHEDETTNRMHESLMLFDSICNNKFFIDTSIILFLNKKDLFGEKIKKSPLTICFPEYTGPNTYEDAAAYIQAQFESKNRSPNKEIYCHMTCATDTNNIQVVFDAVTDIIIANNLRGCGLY
Insulin prom inh: inhibitors of insulin promoter-driven GFP, primary screen, imaging, TRM-6 cells (human fetal islet line), eGFP reporter, cell count; 130,000 tested, 0.9% active; reporter expression induced with tamoxifen; inhibition, % at 2 µM; AID 1273, 2008;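 active means inhibition above the mean plus 3 SD, with well images judged a real hit on visual review, cut at about 60% in these data, passing the limit was not always enough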
HSV augment: enhancers of HSV replication in host cells, fold increase, host cell viability; HSV replication augmentation in cells; AID 1956, 2009; 220,000 tested, 0.005% active; maximum fold increase;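 active means peak rise of 1.5-fold or more in the series; tested in PC3 cells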;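 further: first round at 10 µM; read as green reporter fluorescence; hits show the peak of a series up to 25 µM; 1 = signal of infected wells without compound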
Insulin prom inh cell count: also measured in Insulin prom inh; calls as there; normalized cell count, %; measured here: cell count, toxicity; reference of the scale not given here;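 cells exposed to compound for 48 h; stained nuclei by imaging scaled within each plate; lower means fewer cells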
HSV augment primary fold: further read-out of HSV augment, marked with its call; fold increase; compound at 10 µM; measured here: primary screen fold increase 10 uM; tested in PC3 cells;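 GFP signal in the first replicate; 1 = infected wells without compound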
An asterisk follows results filed as active; i = inactive; x = not tested or not shown.

A first look (2 entries):
SMILES	GALR2 ag	PKD1 kinase inh	RGS16-Gao HTS	Insulin prom inh	Insulin prom inh cell count	HSV augment	HSV augment primary fold
Cc1ccc(C)c(NC(=O)C2CCCN2C(=O)OC(C)(C)C)c1 (configuration not stated)	-1.2	-12	99	x	x	i	0.95
CC(C)C1CC(O)(C2(O)CCCCC2)ON1 (configuration not stated)	-2.5	2	101	-41	89	i	0.99

Results, previewed entries included:
SMILES	GALR2 ag	PKD1 kinase inh	RGS16-Gao HTS	Insulin prom inh	Insulin prom inh cell count	HSV augment	HSV augment primary fold
Cc1ccc(C)c(NC(=O)C2CCCN2C(=O)OC(C)(C)C)c1 (configuration not stated)	-1.2	-12	99	x	x	i	0.95
CC(C)C1CC(O)(C2(O)CCCCC2)ON1 (configuration not stated)	-2.5	2	101	-41	89	i	0.99
Cc1ccc(N/N=C2\CCS(=O)(=O)c3sccc32)cc1	x	10	112	18	155	i	0.95
COc1ccc(C2C(C(C)=O)=C(O)C(=O)N2CCO)c(OC)c1 (configuration not stated)	-0.9	-7	-52	x	x	i	0.95
COc1cc(CNC2CCCCCC2)cc(OC)c1OC	-3.6	-8	92	-37	108	i	0.91
CN(C)CCCNS(=O)(=O)c1cc(Cl)ccc1Cl	-1.8	6	99	x	x	i	1.1
O=C(NCCCN1CCCC1)C1CCN(C(=O)c2cc3sccc3n2Cc2ccc(F)cc2)CC1	-1.4	-3	262	x	x	i	0.86
Cc1oc(-c2ccc(Cl)cc2)nc1CN1CCC(C(=O)NCCCN2CCCC2=O)CC1	-1.8	0	104	x	x	i	1.2
O=C(NC1CCN(Cc2ccccc2)CC1)c1ccccc1F	-2.5	-8	101	x	x	i	0.93
Cc1ccc(F)cc1NC(=O)c1ccc(NS(=O)(=O)c2ccc(Br)s2)cc1	-0.2	-9	111	14	100	i	0.9
O=C(Cn1nc(-c2ccccc2)nc1-c1ccccc1)N1CCOCC1	-1.8	1	130	x	x	i	0.9
CN(C)S(=O)(=O)N(CCN1CCOCC1)Cc1ccccc1F	-1.0	0	105	-41	54	i	0.85
CN1Cc2c(N3CCOCC3)nc3sc(C(=O)c4ccc(Br)cc4)c(N)c3c2CC1(C)C	x	x	68	x	x	i	0.6
C=CCN(c1ccccc1)S(=O)(=O)c1cccc(C(=O)Nc2nc3ccccc3[nH]2)c1	-0.7	-4	105	x	x	i	0.75
CC1COc2ccccc2N1C(=O)c1ccc(Cl)nc1 (configuration not stated)	x	5	101	30	75	i	1.1
COc1ccccc1N1C(=O)C2C3C=CC(C3)C2C1=O (configuration not stated)	-0.1	-1	105	x	x	i	1
C/C(N)=C(/C#N)C(=O)COc1ncnc2ccc(Br)cc12	-1.1	-15	105	48	135	i	1
CCNC(=O)NCCNC(=O)c1cc(OCC(F)(F)F)ccc1OCC(F)(F)F	x	3	99	x	x	i	1
COCc1cc(=O)[nH]c(/N=C(\N)Nc2cccc(Cl)c2)n1	x	-2	109	61	60	i	1.1
O=S(=O)(O)c1ccc(N2N=C(c3ccccc3)CC2c2ccccc2)cc1 (configuration not stated)	x	-6	100	-79	79	i	1.1
CSc1nc(NCC(C)C)nc(N2CCOCC2)n1	0.2	-8	97	-280	85	i	0.88
COc1cc(NC(=O)c2cc(Br)cc(C)c2OC)ccc1NC(=O)C(C)C	x	0	102	-10	91	i	0.92
Cc1ccnc2nc(C(=O)NCc3ccccc3)nn12	x	2	97	x	x	i	1
CCCOc1ccccc1N/C(N)=N/c1nc(C)cc(C)n1	x	-6	105	x	x	i	0.83
COc1ccccc1/C=C1\SC(=S)N(CC(=O)Nc2nnc(C)s2)C1=O	x	-3	100	x	x	i	1

Compound profiles, as listed above. Order of values: GALR2 ag	PKD1 kinase inh	RGS16-Gao HTS	Insulin prom inh	Insulin prom inh cell count	HSV augment	HSV augment primary fold
`CCCOc1ccccc1N/C(N)=N/c1nc(C)cc(C)n1` reads x	-6	105	x	x	i	0.83
`COc1ccccc1/C=C1\SC(=S)N(CC(=O)Nc2nnc(C)s2)C1=O` reads x	-3	100	x	x	i	1
`C=CCN(c1ccccc1)S(=O)(=O)c1cccc(C(=O)Nc2nc3ccccc3[nH]2)c1` reads -0.7	-4	105	x	x	i	0.75
`CN(C)CCCNS(=O)(=O)c1cc(Cl)ccc1Cl` reads -1.8	6	99	x	x	i	1.1
`Cc1ccc(C)c(NC(=O)C2CCCN2C(=O)OC(C)(C)C)c1` (configuration not stated) reads -1.2	-12	99	x	x	i	0.95

Additional structures.
SMILES	GALR2 ag	PKD1 kinase inh	RGS16-Gao HTS	Insulin prom inh	Insulin prom inh cell count	HSV augment	HSV augment primary fold
CC(C)C(NC(=O)C1CCCCC1)C(=O)NCc1ccccn1 (configuration not stated)	-1.5	-5	104	-27	108	i	1
Cc1ccc(S(=O)(=O)/N=C(/NC(=S)Nc2c(C)n(C)n(-c3ccccc3)c2=O)c2ccccc2)cc1	x	x	101	x	x	i	0.94
COC(=O)CCC(=O)OC1(C)C(=O)C=C2C=C(C3CC3)N(CCCOC(C)C)C=C2C1=O (configuration not stated)	x	x	109	x	x	i	1
CC(=O)c1cccc(N(C(=O)Cn2nnc3ccccc32)C(C(=O)NCc2ccccc2)c2ccccn2)c1 (configuration not stated)	-0.8	2	101	-57	90	i	0.91
Cc1ccccc1-c1cc(C(=O)n2cccn2)c2cc(Cl)ccc2n1	-2.2	-10	92	x	x	i	0.89
COc1ccc2[nH]c(=O)c(C(c3nnnn3CC3CCCO3)N3CCc4ccccc4C3)cc2c1 (configuration not stated)	0.3	-2	95	x	x	i	0.94
Cc1cc(C(F)F)n2ncc(C(=O)NCc3ccccc3F)c2n1	-1.2	-2	99	-7	161	i	0.97
O=[N+]([O-])c1ccc(Cl)c(/C=N/N2CCN(c3ccccc3)CC2)c1	-2.8	-9	96	-7	121	i	1.1
COc1ccccc1NC(=O)Oc1cccc(OC(=O)c2ccccc2)c1	x	x	92	x	x	i	0.99
Cn1c(=O)c2c(SCc3ccccn3)nc(-c3ccccc3)nc2n(C)c1=O	-1.3	-3	x	x	x	x	x
Cc1ccccc1CSc1nn2c(=O)c(C)nnc2s1	x	-4	127	x	x	i	0.91
CCC(C)(C)NC(=O)CN(C(=O)CCC(=O)Nc1cc(C)ccn1)c1ccc2c(c1)OCO2	-1.0	-1	105	x	x	i	0.8
COCCNC(=O)C(c1ccc(O)cc1)N(C(=O)CCC(=O)Nc1nccs1)c1cccc(C)c1 (configuration not stated)	x	-4	99	-20	83	i	0.98
Cc1ccc(CC(=O)Nc2cc([N+](=O)[O-])ccc2F)cc1	x	-3	107	43	100	i	1
Cc1cc(NS(=O)(=O)c2ccc(NC(=O)CN3C(=O)c4ccccc4C3=O)cc2)nc(C)n1	-2.5	-11	95	35	101	i	1
Cc1cccc(CCNC(=O)C2CCN(S(=O)(=O)c3c(C)noc3C)CC2)c1	-2.8	-4	92	23	112	i	1
CCOC(=O)c1ccc2[nH]c(C)c(CN3CCN(C)CC3)c(=O)c2c1	-1.8	-4	x	-53	125	x	x
Cc1cccc(/C(N)=N/OC(=O)N2c3ccccc3Sc3ccccc32)c1	-1.6	-1	96	20	121	i	0.72
Cc1ccc(C(=O)CSc2nc3cc(S(=O)(=O)N4CCOCC4)ccc3o2)cc1	-1.3	5	95	12	109	i	1.1
COC(=O)C1=CN(Cc2ccc(OC)cc2)C=C(C(=O)OC)C1c1cccs1	x	-5	89	x	x	i	1.1
CC(=O)Nc1ccc(NC2=Nc3ccccc3N3C2=Nc2c(c(C)nn2-c2ccccc2)C3c2ccccc2)cc1 (configuration not stated)	-1.3	-6	86	64	66	i	0.53
CC(C)(C)c1ccccc1OCC(=O)Nc1ncn[nH]1	1.4	11	68	x	x	i	1.1
CCCCn1c(=O)cc(O)c2ccccc21	-0.3	-6	101	5	117	i	0.88
CC(=O)N1CCN(c2ccc(NC(=S)NC(=O)/C=C/c3ccccc3)cc2)CC1	-0.7	5	60	x	x	i	0.96
CCN(CC)C(=O)N1CCN(S(=O)(=O)c2ccc(C)cc2)CC1	-1.7	-3	99	-37	158	i	1.1
More records follow:
SMILES	GALR2 ag	PKD1 kinase inh	RGS16-Gao HTS	Insulin prom inh	Insulin prom inh cell count	HSV augment	HSV augment primary fold
CCOCCCNC(=O)CN1CCN(Cc2ccccc2C)C1=O	-0.6	0	79	x	x	i	1
O=C(CN1CCN(c2ccc(O)cc2)CC1)NC(=O)NCc1ccco1	-1.7	3	100	x	x	i	0.9
CCCn1c(=O)c(C(=O)NCc2ccccn2)c(O)c2ccccc21	-0.6	-4	96	-320	107	i	0.95
COC(=O)C1=C(O)/C(=C\c2sccc2C)N=C1C	-1.2	8	120	-37	80	i	0.96
NC(=O)C1(N2CCCCC2)CCN(Cc2nc(-c3cccs3)no2)CC1	x	x	103	x	x	i	0.99
Cc1nnc(NC(=O)c2ccncc2)s1	-1.7	-6	109	x	x	i	0.93
CSC1=NC(NCCCO)c2c(sc3c2CC(C)(C)OC3)N1 (configuration not stated)	0.1	-19	102	20	157	i	0.9
O=[N+]([O-])c1cccc(-c2n[nH]c(=S)n2-c2ccccc2)c1	x	x	96	x	x	i	1.1
CCOc1ccccc1-n1c(N)c(C(N)=O)sc1=S	-0.5	-5	104	53	131	i	1
COc1cc2c(cc1OC)C1C(C(=O)Nc3ccccc3N3CCN(C)CC3)c3ccccc3C(=O)N1CC2 (configuration not stated)	x	4	101	x	x	i	0.97
O=C(Cc1ccc(Cl)cc1)NCc1ccccc1Cl	x	0	99	-106	49	i	0.95
O=C(NNc1nc(Nc2ccccc2)nc(N2CCOCC2)n1)Nc1ccc(Cl)cc1	x	-2	110	-76	167	i	0.57
Cc1cccc(NC(=O)c2ccc3nsnc3c2)c1C	x	6	99	x	x	i	1
COc1cc(O)c(C(CC(=O)N2CCOCC2)c2ccc(N(C)C)cc2)c(OC)c1 (configuration not stated)	x	x	99	x	x	i	0.77
Cc1ccc(-c2ccc(/C=N/N=C3/NC(=O)C(CC(=O)O)S3)o2)c([N+](=O)[O-])c1 (configuration not stated)	-1.8	4	99	x	x	i	0.86
COC(=O)c1sccc1NC(=O)NC1CCCCC1	x	-11	103	-81	77	i	0.78
CC(=O)N(Cc1ccc2c(c1)OCO2)C1CC(=O)N(CCc2ccccc2)C1=O (configuration not stated)	-2.9	-3	107	x	x	i	1.1
Cc1nc2cc(Cl)c(Cl)cc2n1CCCO	x	x	87	x	x	i	1.2
COc1cc(/C=N/Nc2nn3cnnc3c3ccccc23)cc(OC)c1OC	0.2	6	106	-16	169	i	0.71
CCc1ccc(-c2ccc(C(=O)O)cc2)nc1	0.0	-3	104	x	x	i	1.1
COCC(C)NC(=O)c1cc(-c2ccc(OC)c(OC)c2)on1 (configuration not stated)	-1.2	-8	100	x	x	i	1.1
COc1ccc(Cn2nnnc2C(c2ccncc2)N2CCOCC2)cc1 (configuration not stated)	1.1	-5	126	11	62	i	0.77
O=[N+]([O-])c1ccc2cn(-c3ccccc3)nc2c1	0.8	-15	104	-7	115	i	1
C=CCn1c(SCC(=O)NCc2ccco2)nnc1-c1ccc2ccccc2n1	-1.9	7	89	-57	116	x	x
COc1ccc(-c2noc(CSc3nnc(Cc4ccccc4)n3-c3cccc(C)c3)n2)cc1OC	0.8	0	105	-5	93	i	0.81
(listing goes on)
SMILES	GALR2 ag	PKD1 kinase inh	RGS16-Gao HTS	Insulin prom inh	Insulin prom inh cell count	HSV augment	HSV augment primary fold
COc1ccc(-c2cc(C(F)(F)F)n3nc(C(=O)NCc4ccco4)c(Cl)c3n2)cc1	0.0	-1	90	21	70	i	0.86
Cc1ccccc1Nc1nc(N)nc(CN2C(=O)NC3(CCCCC3C)C2=O)n1 (configuration not stated)	-1.9	-1	100	-11	120	i	0.88
Nc1ccc(S(=O)(=O)NC(=O)c2ccccc2)cc1	-1.9	-1	103	19	104	i	0.88
COc1ccc(C2CC(=O)C(C=NCCN3CCN(C(C)=O)CC3)=C(O)C2)cc1 (configuration not stated)	-2.6	0	93	-77	65	i	1.1
CC(=O)Nc1cccc(OCCCNC(=O)c2cccc3ccccc23)c1	x	x	103	x	x	i	1.2
CCOc1ccccc1N(CC(=O)NCC1CCCO1)C(=O)CCC(=O)Nc1ccccn1 (configuration not stated)	-0.7	4	103	x	x	i	1.1
CCN(CC)c1ccc(NC(=O)c2ccc(Br)o2)c(C)c1	0.1	-4	104	-24	251	i	0.91
CC1=C(C(N)=O)C(c2ccncc2)n2nc(-c3ccccc3Cl)nc2N1 (configuration not stated)	-1.1	-8	102	x	x	i	0.93
CN(CC(=O)Nc1ccc(N2CCOCC2)cc1)C(=O)CC(c1ccccc1)c1ccccc1	x	3	102	0	70	i	0.97
Cc1ccccc1Cn1cc(C)c(=O)[nH]c1=O	x	-3	100	-12	74	i	1
